From PubChem BioAssay
gsp ag – agonists of gsp mutant (McCune-Albright syndrome). Potency, µM (highest dose often 76.9 µM), for the others: at the highest dose activation (cAMP increase), usual class: activators. AID 624287. actives 0.13% (n = 340,000). gsp mutant cells, cAMP HTRF, 30 min; control for the full effect not named in the record; active = well fitted activation curve with a large enough effect; inconclusive = small, poorly fitted or top-dose-only effect, or another doubt; inactive = no such curve, though single readings can be large or run the other way; cell line not stated here;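 further: phosphodiesterase inhibitor Ro 20-1724 added with compounds to block cAMP breakdown; potency means the concentration at half of the fitted maximal effect; nearly all actives have a fitted effect of over 60% in size; about a fifth of the inactives were tested at one dose only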
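Cells in DMEM/10% FBS with G418 were pretreated with compounds in DMSO plus […] (300 uM stock) for 30 min at 37C. cAMP was measured by HTRF (cAMP-d2 plus anti-cAMP antibody-K) after 30 min at room temperature.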
D2 ag – agonists of human D2 dopamine receptor (beta-arrestin) | P14416 | DiscoveRx PathHunter D2 beta-arrestin, luminescence, 90 min; 100% = 57 uM dopamine signal | activation, % (no concentration beside the values) | actives 0.084% (n = 360,000) | AID 624465; in the data active = activation above about 40%; inconclusive = about 15% to 40%; inactive = below about 15%; further: compound concentration not given in the record; the text of the record calls up to 30% inactive
Target sequence (P14416 whole entry, looked up): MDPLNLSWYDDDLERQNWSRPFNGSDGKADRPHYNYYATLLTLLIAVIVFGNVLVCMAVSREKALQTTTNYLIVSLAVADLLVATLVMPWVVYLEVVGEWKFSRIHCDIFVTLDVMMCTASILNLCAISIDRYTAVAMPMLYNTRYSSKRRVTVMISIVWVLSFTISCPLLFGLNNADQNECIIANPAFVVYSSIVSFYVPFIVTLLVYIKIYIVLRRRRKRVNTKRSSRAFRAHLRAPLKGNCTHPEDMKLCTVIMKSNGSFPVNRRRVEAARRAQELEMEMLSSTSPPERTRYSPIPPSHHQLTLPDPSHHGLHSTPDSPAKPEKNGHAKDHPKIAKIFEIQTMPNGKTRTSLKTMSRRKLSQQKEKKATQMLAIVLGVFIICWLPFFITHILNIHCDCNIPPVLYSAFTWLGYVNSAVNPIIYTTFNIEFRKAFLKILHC
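DiscoveRx PathHunter D2 beta-arrestin cells (2,100/well) attached overnight, then compound-stimulated 90 min at 37 C in HBSS/10 mM HEPES/0.1% Tween-20 buffer; beta-galactosidase complementation read by luminescence after 1 h at ambient temperature. Dopamine 57 uM final (EC100) as control.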
gsp antag – antagonists of gsp mutant (McCune-Albright syndrome); gsp-mutant cells, cAMP HTRF, 30 min; control for the full effect not named in the record; Potency, µM (doses to about 76.9 µM), for inactives: top-dose activity change, negative = inhibition, hits mostly inhibitors; actives 0.4% (n = 340,000); active = falling curve of any shape with a large fitted effect; inconclusive = falling curve, mostly with a smaller effect; inactive = flat or rising curve; cell line not stated here;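 further: intracellular cAMP measured with PDE inhibitor Ro 20-1724 present during compound exposure; potency means the concentration at half of the fitted maximal effect; on the % scale 0 is the no-effect control and ±100 the full control effect; nearly all actives have a fitted effect of over 65% in size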
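HTRF cAMP read-out (cAMP-d2 plus anti-cAMP antibody-K in lysis buffer, 30 min RT). Before lysis, cells are exposed to compounds with […] for 30 min at 37C in DPBS containing Ca/Mg, BSA and Tween 20.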
ClpP mod – qHTS Assay for Activators of ClpP. ATP-dependent Clp protease proteolytic subunit (Bacillus subtilis (strain 168)), P80244. purified B. subtilis ClpP, FRET peptide cleavage, 20 min. Potency, µM (top dose mostly 57.5 µM), for the others: at the highest dose activity change, negative = active. actives 1.9% (n = 340,000). AID 651965, 2013; active = well fitted falling curve with a large enough effect; inconclusive = small, poorly fitted or top-dose-only effect; inactive = no such curve, though single readings can be large or run the other way; further: potency means the concentration at half of the fitted maximal effect; the source files actives as falling curves though it sought activators and does not explain the sign; nearly all actives have a fitted effect of over 65% in size; many hits overshoot -100%
Target sequence (P80244 whole entry, looked up): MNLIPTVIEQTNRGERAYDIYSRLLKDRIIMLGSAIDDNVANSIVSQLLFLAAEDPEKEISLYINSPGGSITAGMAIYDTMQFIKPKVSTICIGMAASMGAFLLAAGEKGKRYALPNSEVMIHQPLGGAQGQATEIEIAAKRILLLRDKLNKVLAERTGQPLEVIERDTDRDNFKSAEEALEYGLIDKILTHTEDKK
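Purified B. subtilis ClpP, 10 microg/mL final in Tris/HCl pH8 with KCl, BSA, glycerol and Tween-20, cleaved an Abz/nitrotyrosine-quenched decapeptide. Fluorescence (ex 320, em 430) was read at 0 and 20 min at room temperature. Delta was normalized to 5.8 microM ADEP and DMSO/no-enzyme controls.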
Sfp PPTase inh – inhibitors of Bacillus subtilis Sfp phosphopantetheinyl transferase | AID 1490 | Potency, µM, inactives show max response, negative = inhibition, actives largely listed as inhibitors | Biochemical Sfp PPTase activity, qHTS | actives 3.5% (n = 310,000) | Q9F4F7; active means well fitted inhibition curve with a large enough effect; inconclusive means small, poorly fitted or top-dose-only effect, or another doubt; inactive means no such curve, though single readings can be large or run the other way;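 further: the enzyme is Sfp with the accession as filed and its product quenches rhodamine fluorescence; potency means the concentration at half of the fitted maximal effect; 0% = enzyme reaction without inhibitor and -100% = no enzyme wells; top concentration of the series not given in the record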
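Fluorescence-quenching assay: 15 nM Sfp-PPTase preincubated 15 min at room temperature with compound, then 5 uM rhodamine-CoA and 12.5 uM BHQ-2-labelled YbbR peptide added. Fluorescence (ex 525/em 598 nm) read at start and after 30 min; difference gives rate.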
Menin MLL FP FL – inhibitors of human menin-MLL interaction, wild-type MLL peptide; Fluorescence polarization, fluorescein-MLL peptide displacement from menin; FP activity change, % at 61.4 µM; 290,000 tested, under 10 active; AID 1766; inconclusive = falling polarisation curve, or a change in total fluorescence; inactive = total fluorescence flat and polarisation flat or rising; no compound was filed as active; the % refers to the polarisation; negative = inhibition;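 further: % of control where 0% means no effect; inhibitors lower the polarisation; unlabelled MLL peptide was the positive control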
PINK1 expr mod – modulators of PINK1 expression | PINK1 immunofluorescence, high-content cytometry, 24 h | Potency, µM (highest dose often 76.6 µM), inactives show at the highest dose activation (PINK1 increase), actives largely listed as activators | actives 0.2% (n = 410,000) | AID 624263; active = well fitted activation curve with a large enough effect; inconclusive = small, poorly fitted or top-dose-only effect; inactive = flat fitted curve, though single readings scatter; cell line not stated here;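 further: potency means the concentration at half of the fitted maximal effect; % of control where 0% means no effect; nearly all actives have a fitted effect of over 65% in size; a mitochondrial uncoupler was the plate control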
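Stable cell line treated 24 h with compounds at 5 concentrations (CCCP controls), then fixed and immunostained for PINK1 plus nuclear and cell stains; PINK1 immunofluorescence quantified by laser-scanning microplate cytometry.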
* hit, by the source's call; ? = inconclusive; / = no result given; [ ] = dose if it differs, or a comment.

#1 O=C(CSc1nnc(C2CC2)n1C1CC1)Nc1cccc(Br)c1
#2 Cc1ccc(S(=O)(=O)N2CCN(C(C)CC(=O)O)CC2)cc1 (stereo unspecified)
#3 CCCC(=O)Nc1nnc(CCN2CCCCC2)s1
#4 CCOC(=O)c1cc(-c2ccccc2)nn1CC1CC(c2cccnc2)=NO1 (stereo unspecified)
#5 CCOC(=O)N1CCN(c2nc(-c3ccccc3)c3cc(C)ccc3n2)CC1
#6 CCn1nc(NC(=O)c2ccccc2)c2cc3cccc(C)c3nc21

compound no.,1,2,3,4,5,6
gsp ag,7%,-17%,2%,-9%,33%,11%[15.4 µM]
D2 ag,1.8,0.2,-0.5,-0.4,4.7,-2.6
gsp antag,-8%,5%,7%,8%,-1%,?
ClpP mod,0.1%,2.7%,-1.8%,0.3%,27%,/
Sfp PPTase inh,/,?,0%,/,-3%,8%
Menin MLL FP FL,/,2.7,0.4,/,-0.9,1.1
PINK1 expr mod,0.7%,-0.1%,4.9%[38.3 µM],-0.7%,3.0%,6.0%

#7 Cc1ccc(C(=O)Cn2c(N3CCOCC3)nc3c2c(=O)n(C)c(=O)n3C)cc1
#8 COc1ccc(/C(O)=C2/C(=O)C(=O)N(CCCN3CCOCC3)C2c2ccc(Cl)cc2)cc1 (stereo unspecified)
#9 CCOC(=O)C1=C(C)C2C3C(=O)N(c4ccccc4C)C(=O)C3C1(C)C1C(=O)N(c3ccccc3C)C(=O)C21 (stereo unspecified)
#10 Cc1cc(-c2nc3ccccc3o2)c2ccccc2n1
#11 c1ccc(CSc2nnc(-c3ccccc3)c(-c3ccccc3)n2)cc1
#12 O=C(CSc1nc2ccccc2o1)N/N=C/c1ccccc1C(=O)O

compound no.,7,8,9,10,11,12
gsp ag,3%,21%,-6%,-4%,/,-19%
D2 ag,-0.6,-0.1,-0.2,-2.3,1.5,-1.7
gsp antag,-4%,/,-22%,-14%,-5%,7%
ClpP mod,1.1%,-0.4%,1.7%,6.0%,-5.6%,-0.4%
Sfp PPTase inh,7%,/,7%,-17%,/,45µM*
Menin MLL FP FL,-0.8,/,-0.8,-0.2,/,0.8
PINK1 expr mod,-1.4%[38.3 µM],3.0%,-2.8%,2.5%,2.0%,0.6%

#13 O=C(COC(=O)/C=C/c1ccc(C(F)(F)F)cc1)NC1CCCC1
#14 CCN1CCN(C(=O)C(C)Sc2nnc3nc(C)cc(C)n23)CC1 (stereo unspecified)
#15 c1ccc2c(CN3CCOCC3)c3ccccc3c(CN3CCOCC3)c2c1
#16 CC(=O)C1=NOC(CNC(=O)c2c(-c3ccccc3Cl)noc2C)C1 (stereo unspecified)
#17 Cc1cccc2sc(N3CCN(C(=O)C4COc5ccccc5O4)CC3)nc12 (stereo unspecified)
#18 COc1ccc2c(C)c(CCC(=O)NC3CC3)c(=O)oc2c1C

compound no.,13,14,15,16,17,18
gsp ag,?,39%,-6%,-1%,-12%[15.4 µM],/
D2 ag,10,-2.2,2.1,6.7,5.7,6.3
gsp antag,8%,19%,-2%,-3%,-6%,-16%
ClpP mod,-2.3%,-12%,-0.3%,0.8%,/,4.8%
Sfp PPTase inh,4%,/,-13%,8%,/,20%
Menin MLL FP FL,/,/,?,-2.5,/,4.5
PINK1 expr mod,-0.8%,0.1%,/,-2.5%,4.5%,2.0%

Limited to Sfp PPTase inh, D2 ag and PINK1 expr mod, for some of the entries so far:
entry | compound | Sfp PPTase inh | D2 ag | PINK1 expr mod
13 | O=C(COC(=O)/C=C/c1ccc(C(F)(F)F)cc1)NC1CCCC1 | 4% | 10 | -0.8%
14 | CCN1CCN(C(=O)C(C)Sc2nnc3nc(C)cc(C)n23)CC1 (stereo unspecified) | / | -2.2 | 0.1%

(more compounds)
#19 CN(C)c1ccc(/C=N/NC(=S)NCc2ccco2)cc1
#20 COc1ccc(C(=O)Oc2ccc(/C=N/Nc3ccc(Cl)c(C(=O)O)c3)cc2OC)cc1
#21 N#Cc1ccc(C(=O)CSc2n[nH]c(=O)n2-c2cccnc2)cc1
#22 CCOc1ccc2nc(SCC(=O)NC3CC3)sc2c1
#23 CCOC(=O)c1[nH]c2ccc(OC)cc2c1NC(=O)CN1CCC2(CC1)OCCO2
#24 COC(=O)c1ccc(Cn2c(C)c(C(=O)NCc3ccc(C#N)cc3)sc2=O)o1

compound no.,19,20,21,22,23,24
gsp ag,-4%,-8%,0%[15.4 µM],7%,-1%,/
D2 ag,-2.7,6.4,-1.8,-3.1,-1.2,-2.4
gsp antag,-5%,-10%,3%,-14%,12%,/
ClpP mod,25µM*,-12%,/,2.1%,14µM*,-6.6%
Sfp PPTase inh,-3%,-13%,?,-8%,4%,/
Menin MLL FP FL,1.5,1.1,-3.0,-6.3,2.4,/
PINK1 expr mod,3.8%,-0.6%,-1.7%,1.3%,-1.7%,-0.6%

#25 COc1cccc(NC(=O)COc2ccccc2C(N)=O)c1
#26 O=c1c(C(c2ccc(O)cc2)c2c(O)nc3n(c2=O)CCS3)c(O)nc2n1CCS2
#27 CC(=O)C1=CCC(c2ccccc2F)N(S(=O)(=O)c2ccc(C)cc2)C1 (stereo unspecified)
#28 O=C1NC(=O)C(Cc2c[nH]c3ccccc23)N1 (stereo unspecified)
#29 Nn1c(-c2ccccc2Cl)nnc1-c1ccccc1Cl
#30 COc1ccc(CC(C(=O)Nc2cccc(F)c2)c2nn[nH]n2)c(OC)c1 (stereo unspecified)

compound no.,25,26,27,28,29,30
gsp ag,-9%,?,/,8%[15.4 µM],0%,-7%
D2 ag,0.1,-0.3,-5.8,-2.8,7.9,-1.3
gsp antag,0%,0%,/,6%,1%,-1%
ClpP mod,-5.7%,-3.8%,2.2%,/,-0.1%,1.2%
Sfp PPTase inh,14%,14µM*,/,/,16%,-3%
Menin MLL FP FL,-0.3,-1.4,/,3.8,2.3,-0.9
PINK1 expr mod,-2.0%,0.0%,4.2%,2.8%,-0.5%,4.3%[38.3 µM]

#31 Cc1nc(N2CCC(C)CC2)c2c(C)c(C(=O)Nc3ccc4c(c3)OCCO4)sc2n1
#32 CN(CC(=O)Nc1ccc(F)c(F)c1F)C(=O)C1CCCO1 (stereo unspecified)
#33 Fc1ccc(-c2cc3nc(-c4ccccc4)cc(N4CCN(CCN5CCOCC5)CC4)n3n2)cc1
#34 CCN1CCN(C(=O)c2cc3cc([N+](=O)[O-])ccc3oc2=O)CC1
#35 CCN1CCN(C(=O)C(=O)c2c(C)[nH]c3ccccc23)CC1
#36 COc1ccc(OC)c(CCNC(=O)c2ccc(CS(=O)(=O)c3ccc(Br)cc3)o2)c1

compound no.,31,32,33,34,35,36
gsp ag,30%,-6%[15.4 µM],-1%,26%,?,30%
D2 ag,2.3,-1.2,2.0,-2.2,-1.5,-1.8
gsp antag,-11%,-11%,-3%,-1%,13%,-19%
ClpP mod,-10%,-1.4%,?,/,-1.1%,/
Sfp PPTase inh,-24%,/,?,7%,24%,6%
Menin MLL FP FL,0.9,/,1.1,-4.6,0.3,-2.9
PINK1 expr mod,-0.1%,0.9%,-2.7%[38.3 µM],2.6%,1.0%,1.3%

#37 CCc1ccc([C@H]2[C@@H]3C(=O)C[C@@H]4C(=O)N(CC)C(=O)[C@@H]4[C@@H]3CN2S(=O)(=O)c2ccc(C)cc2)cc1
#38 O=C(CCNS(=O)(=O)c1ccc2c(c1)CCC(=O)N2)NCc1cccnc1
#39 CN(C(=O)Nc1ccc(F)cc1)[C@H]1C[C@H]2c3[nH]c4ccccc4c3CCN2C(=O)[C@H]1CO
#40 COc1cccc(C2c3c(oc4ccccc4c3=O)C(=O)N2CCCN(C)C)c1OC (stereo unspecified)
#41 CCN(CC)S(=O)(=O)c1cccc(C(=O)Nc2ccc(C#N)cc2)c1
#42 CCn1c(O)c(N=NC(=O)CNC(=O)c2cccnc2)c2ccccc21

compound no.,37,38,39,40,41,42
gsp ag,/,?,-21%,5%,-40%[inhibitor],-26%
D2 ag,0.7,-2.6,-7.4,-1.2,1.6,-10.0
gsp antag,/,5%,/,0%,?,/
ClpP mod,1.3%,1.3%,-6.8%,-6.4%,-3.3%,1.1%
Sfp PPTase inh,/,23%,/,-11%,14%,/
Menin MLL FP FL,/,-0.5,/,1.4,-0.6,/
PINK1 expr mod,1.9%,-3.2%,2.0%,1.6%,3.7%,2.2%

Compounds from the list above that contain bromine (two):
#1 O=C(CSc1nnc(C2CC2)n1C1CC1)Nc1cccc(Br)c1
#36 COc1ccc(OC)c(CCNC(=O)c2ccc(CS(=O)(=O)c3ccc(Br)cc3)o2)c1

compound no.,1,36
gsp ag,7%,30%
D2 ag,1.8,-1.8
gsp antag,-8%,-19%
ClpP mod,0.1%,/
Sfp PPTase inh,/,6%
Menin MLL FP FL,/,-2.9
PINK1 expr mod,0.7%,1.3%

(further entries)
#43 Cn1c(Cn2c(=O)sc3ccccc32)nnc1SCC(=O)Nc1ccc2c(c1)OCO2
#44 COc1ccc(OC(=O)c2cc3cc(Cl)ccc3oc2=O)cc1
#45 O=C(CCCOc1ccccc1)Nc1ncccn1
#46 O=C(O)c1cccc([N+](=O)[O-])c1C(=O)Nc1cccc2ccccc12
#47 Cc1ccc(NC(=O)CCCC2CCCCC2)c(O)c1
#48 CCN(CC)CCNc1ccc(CO)c2oc3ccccc3c(=O)c12
#49 COc1ccc(Br)cc1C(C[N+](=O)[O-])c1c(N)n(C)c(=O)n(C)c1=O (stereo unspecified)

compound no.,43,44,45,46,47,48,49
gsp ag,-34%[inhibitor],?,-27%,11%[15.4 µM],?,37%,34%
D2 ag,-1.4,-5.2,0.4,1.4,0.2,-8.0,-2.4
gsp antag,-5%,2%,11%,1%,10%,/,-8%
ClpP mod,0.6%,/,-3.1%,0.5%,2.5%,-0.2%,-2.7%
Sfp PPTase inh,/,7%,-5%,0%,6%,/,?
Menin MLL FP FL,/,?,2.8,-1.6,/,/,-1.9
PINK1 expr mod,0.2%,-0.1%,-0.7%,-1.2%,3.2%,-0.6%,-1.5%
